Assay outcomes: PubChem BioAssay, PCMD
RmlCD inh 1536: blocks M. tuberculosis RmlC and RmlD coupled enzymes; P9WH09+P9WH11; RmlC+RmlD coupled enzyme assay, percent inhibition; primary screen in compound mixtures; inhibition, % at 3.6 µM; 160,000 tested, 0.03% active; AID 1533; in the data active = inhibition mostly above about 34%, no sharp cut-off; only retested compounds are shown here; note: some results filed as inactive read as strong as hits
Target sequence (P9WH09 whole entry, looked up): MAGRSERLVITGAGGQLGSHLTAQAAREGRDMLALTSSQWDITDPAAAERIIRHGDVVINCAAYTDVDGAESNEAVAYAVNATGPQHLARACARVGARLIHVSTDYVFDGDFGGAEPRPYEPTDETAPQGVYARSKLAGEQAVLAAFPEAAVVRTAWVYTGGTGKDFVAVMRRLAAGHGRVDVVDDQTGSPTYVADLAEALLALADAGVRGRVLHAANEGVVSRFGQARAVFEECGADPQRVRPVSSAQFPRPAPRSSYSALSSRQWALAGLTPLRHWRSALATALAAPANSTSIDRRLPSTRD
Target sequence (P9WH11 whole entry, looked up): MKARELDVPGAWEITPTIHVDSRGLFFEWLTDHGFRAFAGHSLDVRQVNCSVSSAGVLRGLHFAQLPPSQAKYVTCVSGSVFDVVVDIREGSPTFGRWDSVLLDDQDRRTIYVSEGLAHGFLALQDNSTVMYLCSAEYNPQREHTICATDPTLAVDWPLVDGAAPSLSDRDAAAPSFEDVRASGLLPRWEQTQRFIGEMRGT
RmlCD inh 1536 retest: also measured in RmlCD inh 1536; calls as there; inhibition, %; measured here: mean retest inhibition;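 single compounds in two wells; values far above 100% likely come from compound fluorescence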
* = called active by the depositor. A portion of the library; the hit share may differ from the screen's.

SMILES | RmlCD inh 1536 | RmlCD inh 1536 retest
C=CCc1c(C)nc(SCc2nc3ccccc3c(=O)[nH]2)[nH]c1=O | 108 | -13
c1ccn(-c2ccc(N3CCOCC3)cc2)c1 | 38 | 17
Cc1ccc(Nc2ccc(C(=O)O)cc2N)cc1 | 39 | 12
Cc1cc(C)n2nnnc2n1 | 63 | -8
O=C(OCc1nc2ccccc2s1)c1ccc(Br)o1 | 65 | 14
O=C(NCc1ccco1)c1csc2c1CCCC2 | 40 | 8
CC(=O)N(Cc1ccccc1)Cc1cn(CCC#N)nc1-c1cccc([N+](=O)[O-])c1 | 88 | 12
COc1cccc(N(C(=O)Cn2nnc(-c3ccc(Cl)cc3)n2)C(C(=O)NCC2CCCO2)c2ccc(C)cc2)c1 (configuration not stated) | 68 | 5
CCNC(=O)c1cc2c(=O)n3cccc(C)c3nc2n(CCc2ccccc2)c1=N | 32* | 153*
Cc1cc(C)n2nc(C(=O)N/N=C/c3ccccc3Cl)nc2n1 | 47 | 5
Cc1cc(C(=O)N(CCC#N)Cc2cccs2)no1 | 60 | -1
O=C(c1cccc2ccccc12)N1CCN=C1SCc1ccc([N+](=O)[O-])cc1 | 52 | -5
NNC(=O)c1oc2nc(-c3ccco3)cc(-c3ccco3)c2c1N | 105 | 9
CC1CCCCC1NC(=S)Nc1cccc(S(=O)(=O)N(C)C)c1 (configuration not stated) | 41 | -3
Cc1c(Br)c([N+](=O)[O-])nn1CC(=O)Nc1ccc(CC#N)cc1 | 37 | 2
O=C(CC1S/C(=N/N=C/c2cccs2)NC1=O)Nc1ccc(Cl)cc1 (configuration not stated) | 56 | -13
CCn1c(SCC#N)nc2ccccc2c1=O | 95 | -4
CC(C)COc1ccc(N)cc1OCC(C)C | 41 | -16
CCOC(=O)N1CCN(c2nc3ccc(C(=O)c4ccccc4)cc3n3cnnc23)CC1 | 60 | -5
OC1COC(OCc2ccccc2)C(O)C1O (configuration not stated) | 67 | -4
CCCNC(=O)c1ccc2c(c1)ncn2-c1cc(C)cc(C)c1 | 107 | -6
O=C(COc1ccc([N+](=O)[O-])cc1)Nc1cc(C(=O)O)cc(C(=O)O)c1 | 45 | -10
O=C1N/C(=N\N=C\c2cccnc2)SC1Cc1ccc(SC(F)F)cc1 (configuration not stated) | 38 | -2
COc1cccc(-c2cc(C(=O)N3CCCCC3C)no2)c1 (configuration not stated) | 84 | 7
Cc1nc(N)nc(Cl)c1Cc1ccc(Cl)cc1 | 88 | 6
COc1ccc(C(=O)O/N=C(\C)c2ccccc2)cc1 | 31 | 1
O=C(COC(=O)/C=C/c1ccco1)Nc1ccccc1 | 51 | -8
CCOC(=O)CNC(=O)N1CCCC(C(=O)c2ccc3c(c2)OCO3)C1 (configuration not stated) | 32 | 11
O=c1oc2ccc(Cl)cc2cc1-c1ccccc1 | 35 | -6
CCSc1ncnc2sc(C)c(C)c12 | 34 | 0
CC1(C(=O)O)CCC(C(=O)NC2CCCCCC2)C1(C)C (configuration not stated) | 39 | 0
CC(C)OP(=O)(c1ccccc1)c1ccccc1 | 30 | -15
COc1ccc(/C=N/NC(=O)c2ccc(CSc3nc(C)cc(C)n3)cc2)cc1O | 35 | 12
COc1ccccc1-n1c(SCC(=O)c2ccc(O)cc2O)nc2cc([N+](=O)[O-])ccc21 | 83 | 14
CCOC(=O)c1c(C)[nH]c(C)c1C(=O)COC(=O)/C=C/c1cccc(F)c1 | 66 | 7
CN(C)NC(=S)Nc1ccc(Cl)cc1 | 30 | 0
Cc1nc(NC(=O)c2cccc(-c3cc4ccccc4oc3=O)c2)ccc1Br | 74 | -12
CC(O)C(O)C(O)C(O)/C=N/NC(=O)c1ccccc1 (configuration not stated) | 43 | 3
CC1=NN(C(=O)c2ccoc2C)C(O)(C(F)(F)F)C1 (configuration not stated) | 74 | -5
COc1cccc(C(=O)Nc2c[nH]c(=O)[nH]c2=O)c1 | 32 | -1
COc1cc(/C=N/NC(=O)CC2(C)OCCCO2)ccc1OCc1ccc(Cl)cc1Cl | 36 | 1
NC(=O)N/N=C\c1cccs1 | 34 | -1
COc1ccc(C(=O)NNS(=O)(=O)c2ccccc2)cc1 | 40 | -10
CCOC(=O)N1CN(C(=O)OCC)CN(C(=O)OCC)C1 | 40 | 7
O=C(CSCC(=O)N1CCOCC1)Nc1nc(-c2ccccc2)cs1 | 57 | -6
COc1ccc(C(=O)O/N=C(/c2ccccc2)c2ccncc2)cc1 | 45 | 3
COc1ccc(CCN2CC(C(=O)NCCc3ccc(C)cc3)CC2=O)cc1OC (configuration not stated) | 39 | 6
C=CCNCCCCOc1ccc(Br)cc1C | 54 | 8
CN1C(=O)N(C)C2(C)CC1(C)N(C)C(=O)N2C | 40 | -12
Cc1ccccc1CNC(=O)Nc1cccs1 | 92 | -13
CCOC(=O)c1c(N)c2cc([N+](=O)[O-])cnc2n1C | 36 | -4
O=C(/C=C/c1ccc(Br)cc1)c1ccc(NC2=NCCCS2)cc1 | 34 | -13
COCC1CCCCN1Cc1cn(-c2ccccc2)nc1-c1ccc2c(c1)OCO2 (configuration not stated) | 45 | -14
COc1ccc(CC(=O)NCc2nnc(SCc3ccc([N+](=O)[O-])cc3)n2C)cc1 | 34 | -14
C/C=C/c1ccc(Oc2nnnn2-c2ccc(C(=O)O)cc2)c(OC)c1 | 71 | -5
O=C(Cc1ccc(Br)cc1)OCC(=O)N1CCc2ccccc2C1 | 33 | -16
Cc1cc(SCC(=O)N/N=C/c2ccco2)nc2ccccc12 | 76 | -3
COc1cccc(-n2c(Cc3cc(=O)[nH]c(=O)[nH]3)nnc2SCc2cccc(C(F)(F)F)c2)c1 | 47 | -22
Cc1cc2c(ncn2Cc2ccccc2)c(N)c1C | 34 | -21
CCCc1cc(=O)n2[nH]c(NCc3ccccc3Cl)nc2n1 | 47 | -13

3 entries out of the list, sorted by SMILES length, smallest number first.
SMILES | RmlCD inh 1536 | RmlCD inh 1536 retest
Cc1cc2c(ncn2Cc2ccccc2)c(N)c1C | 34 | -21
CCOC(=O)c1c(N)c2cc([N+](=O)[O-])cnc2n1C | 36 | -4
COc1ccc(CC(=O)NCc2nnc(SCc3ccc([N+](=O)[O-])cc3)n2C)cc1 | 34 | -14

The list goes on.
SMILES | RmlCD inh 1536 | RmlCD inh 1536 retest
COc1ccc(CCN=CC2=C(O)CC(C)(C)CC2=O)cc1 | 43 | -13
CN1C(=O)C2(c3ccccc31)c1c(oc3ccccc3c1=O)C(=O)N2CCCO (configuration not stated) | 79 | 3
Oc1ccc(/C=N/N2CCN(C3c4ccccc4-c4ccccc43)CC2)cc1O | 45 | -9
COC(=O)c1c(C(C)=O)c(C)n(C)c1C | 61 | 6
Cc1ccc(-n2ncc(C#N)c2/N=C/N2CCCCCC2)cc1 | 77 | -2
Nc1c(C(=O)c2ccc(Br)cc2)oc2ccccc12 | 39 | 10
O=C(CSc1nc2ccccc2c(=O)n1CC1CCCO1)NCc1ccc2c(c1)OCO2 (configuration not stated) | 42 | -6
Cc1cc(C)c(NC(=O)c2cn3c4c(c(N5CCN(C)CC5)c(F)cc4c2=O)OCC3C)c(C)c1 (configuration not stated) | 34 | 24
CCOC(=O)C1CCN(C(=S)NC2CC3C=CC2C3)CC1 (configuration not stated) | 43 | -5
COc1ccc(C2C(C(=O)NC(C)C)c3ccccc3C(=O)N2C)cc1OC (configuration not stated) | 45 | -5
O=[N+]([O-])c1ccc(N2CCN(C(=S)NC3CCCCC3)CC2)cc1 | 78 | 3
COCCNC(C(=O)Nc1ccc(C)cc1[N+](=O)[O-])c1ccccc1 (configuration not stated) | 61 | 2

Seven records drawn at random from the list so far, as already listed:
SMILES | RmlCD inh 1536 | RmlCD inh 1536 retest
COc1ccc(C(=O)NNS(=O)(=O)c2ccccc2)cc1 | 40 | -10
O=C(COC(=O)/C=C/c1ccco1)Nc1ccccc1 | 51 | -8
C/C=C/c1ccc(Oc2nnnn2-c2ccc(C(=O)O)cc2)c(OC)c1 | 71 | -5
O=c1oc2ccc(Cl)cc2cc1-c1ccccc1 | 35 | -6
CC1CCCCC1NC(=S)Nc1cccc(S(=O)(=O)N(C)C)c1 (configuration not stated) | 41 | -3
Cc1c(Br)c([N+](=O)[O-])nn1CC(=O)Nc1ccc(CC#N)cc1 | 37 | 2
Cc1cc(C)n2nnnc2n1 | 63 | -8

(more compounds)
SMILES | RmlCD inh 1536 | RmlCD inh 1536 retest
CCC1(C)CC(CCNCc2ccc(N(C)C)cc2)(c2ccc(F)cc2)CCO1 (configuration not stated) | 70 | -9
CC(=O)c1ccc(NS(=O)(=O)c2c(C)cc(C)cc2C)cc1 | 40 | -9
CCc1cccc(CC)c1NC(=O)COC(=O)C1(c2ccc(Cl)cc2)CCCC1 | 102 | -10
CCC1(C)CC2(CCCN(CCC(=O)c3ccccc3)C2)CCO1 (configuration not stated) | 103 | -5
CC(C)c1cc(C(=O)Nc2cccnc2)no1 | 44 | -4
Cc1noc(C)c1C(=O)N1CCN(c2cccc(Cl)c2)CC1 | 43 | 10
COc1c(Cl)cnn(-c2ccc(Cl)c(Cl)c2)c1=O | 51 | -11
CN(CC(O)Cn1cnc2c1c(=O)n(C)c(=O)n2C)c1ccccc1 (configuration not stated) | 71 | -5
CN(C(=O)c1cccc(C#N)c1)c1nnc(-c2ccncc2)s1 | 63 | 23
O=C(O)/C=C/C(=O)Nc1ccccc1SC(F)(F)F | 38 | 7
O=c1[nH]c(=S)[nH]c(O)c1N=Nc1ccc2c(c1)OCCO2 | 37 | 12
NC(=O)SCC(=O)Nc1ccccc1C(=O)O | 36 | -8

Profiles, looked up by structure. Order of screens: RmlCD inh 1536	RmlCD inh 1536 retest
O=C(O)/C=C/C(=O)Nc1ccccc1SC(F)(F)F is entered as 38	7
CN(C(=O)c1cccc(C#N)c1)c1nnc(-c2ccncc2)s1 is entered as 63	23
CCC1(C)CC2(CCCN(CCC(=O)c3ccccc3)C2)CCO1 (configuration not stated) is entered as 103	-5
CCc1cccc(CC)c1NC(=O)COC(=O)C1(c2ccc(Cl)cc2)CCCC1 is entered as 102	-10
COc1c(Cl)cnn(-c2ccc(Cl)c(Cl)c2)c1=O is entered as 51	-11

Next compounds.
SMILES | RmlCD inh 1536 | RmlCD inh 1536 retest
Cc1ccc2c(c1)C(=C(C#N)C#N)C(=O)N2CCN1CCCCC1 | 36 | 1
Cc1cc(N=Nc2ccc(Cl)cc2)cc(CN2CCCC2)c1O | 36 | 3
Cc1ccc(C(=O)N2CCN(S(=O)(=O)c3ccccc3)CC2)cc1 | 43 | -1
Cc1cccc(N=C2NC(=O)/C(=C/c3cccn3C)S2)c1C | 38 | 9
C=CCN(C(=O)c1ccc(Cl)cc1)c1ccccc1C(=O)NCC(=O)O | 56 | -19
CC(OC(=O)CN1C(=O)C2CCCCC2C1=O)C(=O)Nc1ncc(Cl)cc1Cl (configuration not stated) | 41 | -2
NS(=O)(=O)c1ccc(NC(=O)COC(=O)c2ccc(Cl)cc2[N+](=O)[O-])cc1 | 55 | -8
COc1ccc(NC(=S)N(Cc2ccc(C(=O)O)cc2)Cc2ccc(OC)c(OC)c2)cc1 | 59 | -10
O=C(O)CCc1nc2cc3ccccc3cc2[nH]1 | 43 | -9
O=C(OCCOc1ccc(Br)cc1)c1ccc(Cl)nc1 | 37 | -3
CC(=O)Nc1ccc(NS(=O)(=O)c2ccc3[nH]c(=O)[nH]c3c2)cc1 | 32 | 14
CCC(=O)Nc1ccc(OCc2nc3ccccc3s2)cc1 | 69 | -7
O=[N+]([O-])c1ccc2nc(-c3ccncc3)[nH]c2c1 | 40 | -2
CCOc1ccc(N/C=C/C(=O)c2ccccc2)c([N+](=O)[O-])c1 | 37 | 8
NS(=O)(=O)c1ccc(N=Nc2c(=O)[nH]n3c(=O)c4c([nH]c23)CCCC4)cc1 | 51 | -1
COCCNC(=O)C(c1c[nH]c2ccccc12)N(C(=O)c1snc(C(N)=O)c1N)c1cccc(OC)c1 (configuration not stated) | 46 | 2
O=C(/C=C/c1ccccc1)Oc1cccc(C(=S)N2CCOCC2)c1 | 43 | 2
O=C(NCc1ccco1)C1CC(c2ccc(F)cc2)=NO1 (configuration not stated) | 59 | -16
Cc1ccc(-n2[nH]c3c4c(ccc3c2=O)C(=O)c2ccccc2C4=O)cc1 | 46 | 13
Oc1ccccc1N1CCN(c2nnnn2-c2ccccc2)CC1 | 70 | 8
Fc1ccc(NC(=S)NCc2cccs2)cc1 | 36 | -6
NNc1nc2c(Cl)cccc2s1 | 44 | 3
OCc1cn(-c2ccccc2)nc1-c1cc2ccccc2o1 | 34 | -12
CC1(C)c2cc(Cl)ccc2-n2c1cc(O)c(-c1ccccc1)c2=O | 60 | -15
Cc1ccc(C(=O)OCn2nnc3ccccc3c2=O)cc1[N+](=O)[O-] | 61 | -8
COCCn1c(SCC(=O)c2ccccc2)nc2ccccc2c1=O | 40 | 5
CCCCNC(=O)CSc1nc2ccc(N3CCOCC3)cc2c(=O)n1CCc1ccccc1 | 30 | -7
CCOc1cc(CNCCO)cc(Br)c1OCc1ccc(Cl)cc1 | 36 | -30
CC12CCC(C(=O)N(CC(O)CN3CCN(Cc4ccccc4)CC3)C1=O)C2(C)C (configuration not stated) | 103 | -33
COC(=O)CCS(=O)(=O)c1ccc(Cl)cc1 | 104 | -5
CCc1nnc(N2C(=O)c3ccccc3C2(O)c2ccccc2)s1 (configuration not stated) | 35 | -6
S=C(Nc1ccccc1)Nc1cccc(Br)c1 | 35 | 2
COc1ccc(/C=N/N=C2/NC(=O)C(c3ccccc3)S2)c(OC)c1 (configuration not stated) | 40 | -8
Cc1ccc(S(=O)(=O)Nc2cc(=O)[nH]c(SCc3ccccc3Cl)n2)cc1 | 32 | -2
S=c1[nH]nc(-c2cccs2)n1C1CCCCC1 | 43 | -8
Cc1ccc(C(=O)N2CCN(c3ccc([N+](=O)[O-])c(N4CCOCC4)c3)CC2)cc1 | 99 | -12
COc1ccc(-n2c(SCC(=O)Nc3cccc(S(N)(=O)=O)c3)nc3ccccc3c2=O)cc1OC | 44 | -12
Cc1c(NC(=O)CN2c3cccc4cccc(c34)S2(=O)=O)c(=O)n(-c2ccccc2)n1C | 68 | 10
CCCN(CCC)CCCNc1ccc(C(=O)Nc2cccc(OC)c2)cc1[N+](=O)[O-] | 43 | 10
CNC(=O)c1ccccc1Sc1ccccc1CO | 39 | 5
